Compound activity as filed in PubChem BioAssay.
PD-1 reverse act = reversal of PD-1 mediated T-cell inhibition | primary human CD4 T cells, PD-L1 beads, CellTiter-Glo 96 h | activation, % (no concentration beside the values) | 29,000 tested, under 10 active;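 active = replicate mean of 50% or more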;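 also: 0% = median vehicle wells and 100% = positive control; 100 nL library stock added to about 50 µL; numbers are from one replicate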
MITF inh = inhibitors of MITF. AID 2240. TRPM1 promoter luciferase, luminescence, 24 h. inhibition, % (concentration not given with the values). 37,000 tested, 0.28% active;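 active = most replicates at 85% or more, or half of them and the mean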;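 also: human melanocyte line stably carrying TRPM1 promoter luciferase reporter; 0% = vehicle wells and 100% = a positive control; the first replicate is given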
Hedgehog inh = Sonic Hedgehog pathway inhibition. AID 2313. inhibition, % (test concentration not listed). Shh-LIGHT2 Gli-luciferase reporter, 30 h. 22,000 tested, 2.1% active;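 active = replicate mean of 65% or more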;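 also: pathway switched on by Shh-conditioned medium diluted 1 in 25 in low serum; 100 nL library stock added to about 40 µL; 0% = median of neutral wells and 100% = positive control level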
YB-1 expr inh = YB-1 expression inhibition; U2OS, qRT-PCR YB-1 vs CDIP delta delta Cp, 16 h; stronger effect = higher value; zero = DMSO, each unit about twofold; delta delta Cp (YB-1 minus CDIP) (no concentration beside the values); 30,000 tested, 0.37% active;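 active = delta delta Cp rounded down to an integer at or above 3, about 3 SD of DMSO wells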;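 also: higher means less YB-1 transcript or more CDIP transcript relative to DMSO; stock transfer was 100 nL into about 100 µL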
An asterisk follows results filed as active; . = no result given. Some of the compounds tested (hit frequency here may not be typical).

Compound	PD-1 reverse act	MITF inh	Hedgehog inh	YB-1 expr inh
C[C@@H]1CN([C@H](C)CO)C(=O)c2cccc(NC(=O)Nc3ccccc3)c2O[C@@H]1CN(C)C(=O)Nc1ccc(C(F)(F)F)cc1	-1.2	-5.5	13.4	-0.0855
C[C@@H]1CN([C@@H](C)CO)C(=O)c2cccc(NS(=O)(=O)c3cn(C)cn3)c2O[C@@H]1CN(C)Cc1ccc2c(c1)OCO2	2.2	-13.0	46.9	0.197
CCOC(=O)c1c(NC(=O)CSc2nc3ccccc3[nH]2)sc(C)c1C	-2.9	52.8	.	.
CCC(=O)OCC(=O)[C@@]1(OC(=O)CC)[C@H](C)CC2C3C([C@@H](O)C[C@@]21C)[C@@]1(C)C=CC(=O)C=C1C[C@H]3Cl (some centres undefined)	.	-2.4	68.2*	0.175
COC(=O)c1sc(=S)sc1C(=O)OC	-8.3	-10.3	8.5	0.249
CC(C)NC(=O)Nc1ccc2c(c1)CC(=O)N([C@H](C)CO)C[C@@H](C)[C@H](CN(C)Cc1ccc(Oc3ccccc3)cc1)O2	0.4	-0.6	34.9	-0.0183
OCCSc1nnc(-c2ccccc2O)n1-c1ccccc1	-0.5	4.3	.	.
Cn1nnc(NC(=O)COc2ccc(Cl)cc2Cl)n1	2.3	-22.3	.	.
C[C@H]1CN([C@@H](C)CO)C(=O)c2cc(NC(=O)Cn3cnnn3)ccc2O[C@@H]1CN(C)Cc1ccc(Cl)c(Cl)c1	1.9	3.5	-5.8	0.121
COc1ccc(S(=O)(=O)Nc2ccc3c(c2)CC(=O)N([C@H](C)CO)C[C@@H](C)[C@@H](CN(C)C(=O)Nc2cccc4ccccc24)O3)cc1	0.5	-10.4	5.1	0.239
COc1ccc(Cl)cc1NC(=O)CSc1n[nH]c(-c2ccccc2C)n1	1.7	22.7	.	.
Cc1noc(C)c1NC(=O)Nc1ccc2c(c1)CC(=O)N([C@H](C)CO)C[C@@H](C)[C@@H](CN(C)S(=O)(=O)c1ccc(Cl)cc1)O2	-1.8	-15.6	-13.6	-0.657
COc1ccc(S(=O)(=O)Nc2ccc3c(c2)CC(=O)N([C@@H](C)CO)C[C@H](C)[C@@H](CN(C)C(=O)Nc2ccccc2)O3)cc1	-0.3	-7.8	0.8	0.0983
Cc1nn(C)c(C)c1CN(C)C(=O)c1cc2nc(-c3ccc(Cl)cc3)cc(C(F)(F)F)n2n1	-1.5	44.8	.	.
NNC(=O)/C(=C\c1ccccc1)NC(=O)c1ccccc1	-0.4	5.1	-7.8	2.92
COc1ccc(S(=O)(=O)N(C)C[C@@H]2Oc3ccc(NC(=O)Cc4cn(C)c5ccccc45)cc3C(=O)N([C@H](C)CO)C[C@@H]2C)cc1	.	20.0	.	-0.534
C[C@@H]1CN([C@@H](C)CO)C(=O)c2cccc(NC(=O)Nc3ccc(C(F)(F)F)cc3)c2O[C@@H]1CN(C)Cc1ccc(Oc2ccccc2)cc1	-10.7	-11.7	24.0	-0.48
COc1ccc(S(=O)(=O)N(C)C[C@@H]2Oc3ccc(NS(=O)(=O)c4ccccc4)cc3C(=O)N([C@@H](C)CO)C[C@@H]2C)cc1	-1.8	6.0	.	0.0163
COc1ccc(S(=O)(=O)N(C)C[C@@H]2Oc3c(NC(=O)Nc4ccc5c(c4)OCO5)cccc3C(=O)N([C@H](C)CO)C[C@@H]2C)cc1	-1.3	-23.7	7.8	-0.116
COc1ccc(NC(=O)Nc2cccc3c2O[C@H](CN(C)Cc2ccncc2)[C@@H](C)CN([C@@H](C)CO)C3=O)cc1	1.0	-4.8	-4.5	-0.239
C[C@@H]1CN([C@@H](C)CO)C(=O)c2cccc(NC(=O)c3cnccn3)c2O[C@H]1CN(C)CC1CC1	0.8	-7.6	6.2	0.216
CC(C)OC(=O)CSc1nc(-c2cccs2)cc(C(F)(F)F)c1C#N	-1.1	17.1	.	.
Cc1onc(-c2c(Cl)cccc2Cl)c1-c1csc(CCn2c(=O)oc3ccccc32)n1	-10.2	28.3	62.2	-0.853
COC(=O)c1ccsc1NC(=O)CSc1nnnn1-c1ccccc1SC	-1.3	22.1	.	.
C[C@@H]1CN([C@H](C)CO)C(=O)c2cccc(NC(=O)c3ccncc3)c2O[C@@H]1CN(C)Cc1ccc(Cl)c(Cl)c1	.	3.0	7.7	-0.0166
C[C@H]1CN([C@@H](C)CO)C(=O)c2cc(NC(=O)Cn3cnnn3)ccc2O[C@H]1CN(C)S(=O)(=O)c1ccc(Cl)cc1	1.2	-10.1	-27.2	0.358
CCC(=O)NCC[C@@H]1CCc2ccc3c(c21)CCO3	.	-6.7	44.7	0.292
C[C@@H]1CN([C@H](C)CO)C(=O)Cc2cc(NS(=O)(=O)c3ccccc3)ccc2O[C@@H]1CN(C)Cc1ccc(C(F)(F)F)cc1	-4.9	-2.6	-9.9	-0.118
CCc1ccc(N2C(N)=C(C#N)C(c3cccc(Cl)c3)c3c(C)noc32)cc1 (centres undefined)	1.2	1.4	7.4	-0.481
C[C@@H]1CN([C@H](C)CO)C(=O)c2cc(NS(=O)(=O)c3ccccc3)ccc2O[C@H]1CN(C)Cc1ccc(-c2ccccc2)cc1	-1.1	9.9	.	-0.166
Cc1nc(C(N)=NC(=O)c2ccc(Cl)cc2)cs1	1.1	-78.7	.	0.175
C[C@@H]1CN([C@H](C)CO)C(=O)c2cc(NS(=O)(=O)c3ccc(F)cc3)ccc2O[C@@H]1CN(C)S(C)(=O)=O	-0.9	-6.5	.	0.19
C[C@H]1CN([C@@H](C)CO)C(=O)c2cccc(NC(=O)C3CCCCC3)c2O[C@H]1CN(C)S(=O)(=O)c1cccs1	-3.4	27.5	29.3	0.279
CS(=O)(=O)N(CC(=O)Nc1cccc(Cl)c1Cl)Cc1ccccc1	-0.6	-12.9	.	.
C(=N\n1cnnc1)/c1ccco1	-0.8	-9.0	-14.3	0.204
Cc1noc(C)c1NC(=O)Nc1ccc2c(c1)CC(=O)N([C@@H](C)CO)C[C@H](C)[C@@H](CN(C)C(=O)Nc1cccc3ccccc13)O2	-1.0	4.4	-5.0	0.438
COC1OC2c3cc4c(cc3CCN(C)C2c2ccc3c(c21)OCO3)OCO4 (centres undefined)	1.7	-0.1	-0.2	0.238
Cc1ccc(OCC(=O)OC2CCN(C)CC2)cc1	0.8	-3.6	.	.
O=c1ccc2cc3ccoc3cc2o1	-0.7	-8.7	-25.3	0.862
CCn1c(SCC(=O)O)nnc1-c1ccc(OC)cc1	-0.4	-2.9	.	.
Cc1cc(C)c(C#N)c(SCC(O)CS(=O)(=O)c2ccc(C(C)(C)C)cc2)n1 (centres undefined)	0.5	5.0	.	.
O=C(CCCOc1ccc(Cl)cc1Cl)Nc1ccc2c(c1)OCCO2	-0.4	-53.3	-65.6	-0.408
O=C(CSc1nc2sc3c(c2c(=O)n1Cc1ccco1)CCC3)N1CCCc2ccccc21	-1.5	4.4	.	.
N#CCCN(/N=C/c1ccccc1)C1=NS(=O)(=O)c2ccccc21	-3.4	-3.1	6.9	-0.0699
C[C@@H]1CN([C@@H](C)CO)C(=O)c2cc(NC(=O)Nc3ccc(F)cc3)ccc2O[C@H]1CN(C)Cc1ccc(Cl)c(Cl)c1	0.1	40.7	.	-0.283
C[C@@H]1CN([C@H](C)CO)C(=O)c2cc(NC(=O)C3CC3)ccc2O[C@@H]1CN(C)C(=O)NC1CCCCC1	0.4	8.9	-24.7	-0.0421
CCN(CC)C(=O)Sc1nc2ccccc2c(=O)n1CC1CC1	1.0	10.1	.	-1.2
O=C(CN1C(=O)c2ccccc2S1(=O)=O)Nc1ccc(Cl)c(Cl)c1	1.1	18.7	.	.
C[C@H]1CN([C@@H](C)CO)C(=O)Cc2cc(NC(=O)Nc3ccc(C(F)(F)F)cc3)ccc2O[C@H]1CN(C)C(=O)NC1CCCCC1	-1.5	-0.5	9.9	0.316
Cc1ccc(S(=O)(=O)Nc2ccc3c(c2)CC(=O)N([C@@H](C)CO)C[C@H](C)[C@H](CN(C)Cc2ccccc2)O3)cc1	1.9	5.7	.	-0.0556
COc1ccc(NC(=O)N(C)C[C@H]2OCCCC[C@@H](C)Oc3ccc(NC(=O)NC(C)C)cc3C(=O)N([C@H](C)CO)C[C@@H]2C)cc1	-1.0	-15.2	-28.6	0.38
CCOc1ccc2nc(SCC(=O)c3cccs3)sc2c1	0.1	12.9	0.4	0.178
Cc1noc(C)c1NC(=O)Nc1ccc2c(c1)C(=O)N([C@H](C)CO)C[C@H](C)[C@@H](CN(C)S(=O)(=O)c1cn(C)cn1)OCCCC[C@@H](C)O2	.	-3.7	-2.2	0.0898
COc1ccc(NC(=O)N(C)C[C@@H]2Oc3c(NC(=O)Nc4c(C)noc4C)cccc3C(=O)N([C@H](C)CO)C[C@@H]2C)cc1	2.5	4.3	2.9	-0.324
C[C@@H]1CCCCO[C@@H](CN(C)S(=O)(=O)c2ccc(F)cc2)[C@@H](C)CN([C@H](C)CO)C(=O)c2cc(NC(=O)CCC(F)(F)F)ccc2O1	.	4.0	5.5	-0.184
COC(=O)C1=CO[C@@H](C)[C@H]2CN3CCc4c([nH]c5ccccc45)[C@@H]3C[C@H]12	2.7	4.6	26.4	0.094
C[C@H]1CN([C@@H](C)CO)C(=O)Cc2cc(N(C)C)ccc2O[C@H]1CN(C)Cc1ccccc1	0.5	-5.2	59.2	-0.129
C[C@H](CO)N1C[C@H](C)[C@@H](CN(C)Cc2ccc(C(F)(F)F)cc2)Oc2ccc(NC(=O)Cc3cn(C)c4ccccc34)cc2C1=O	1.0	21.5	.	0.0358
COc1cccc(NC(=O)CSc2nc(-c3ccccc3)c(-c3ccccc3)[nH]2)c1	-1.0	5.8	.	.
CC(Oc1ccc(C(C)(C)C)cc1)C(=O)NCc1ccco1 (centres undefined)	0.5	-6.7	.	.

(next part)
Compound	PD-1 reverse act	MITF inh	Hedgehog inh	YB-1 expr inh
Nc1nc(N)n(-c2ccccc2)c(=Nc2ccccc2)n1	4.2	-1.6	-6.4	0.0473
C[C@H]1CN([C@@H](C)CO)C(=O)Cc2cc(NC(=O)C3CC3)ccc2O[C@H]1CN(C)Cc1ccc2c(c1)OCO2	1.6	2.1	-13.8	-0.158
O=C(CCS(=O)(=O)c1nc(-c2ccccc2)cc(C(F)(F)F)n1)Nc1ccc(Cl)cc1Cl	-16.3	9.6	.	.
COc1cc2oc(-c3ccccc3)cc(=O)c2c(OC)c1OC	-2.6	-52.3	-13.9	0.513
Cc1ccc(C2Nn3c(nnc3-c3ccccc3)SC2C(=O)NCC2CCCO2)cc1 (centres undefined)	-2.1	9.8	-19.6	0.189
C[C@H](CO)N1C[C@H](C)[C@@H](CN(C)Cc2ccc(Oc3ccccc3)cc2)Oc2ccc(NC(=O)Nc3ccc4c(c3)OCO4)cc2C1=O	-0.1	-7.5	.	-0.167
COc1cc(OC)c(NC(=O)CSc2ccccn2)cc1Cl	-0.3	-7.4	.	.
O=C(CSc1nc(C(F)(F)F)cc(=O)[nH]1)Nc1ccc(F)cc1	1.6	-4.7	.	.
CC(=O)c1c(O)cc(O)cc1CC(=O)O	-0.3	6.6	-4.8	0.202
C[C@H]1CN([C@@H](C)CO)C(=O)c2cc(NC(=O)NC3CCCCC3)ccc2O[C@H]1CN(C)C(=O)Nc1ccccc1	0.5	-7.5	-13.1	0.0851
COc1ccc(S(=O)(=O)Nc2ccc3c(c2)C(=O)N([C@H](C)CO)C[C@@H](C)[C@@H](CN(C)C(=O)Nc2ccc(C(F)(F)F)cc2)O3)cc1	-2.6	9.2	.	0.123
COc1ccc(NC(=O)CN(C2CCCCC2)S(=O)(=O)c2ccc(Cl)cc2)cc1	-1.2	8.9	.	.
Cc1noc(C)c1NC(=O)Nc1ccc2c(c1)C(=O)N([C@H](C)CO)C[C@H](C)[C@H](CN(C)C(=O)NC(C)C)OCCCC[C@@H](C)O2	0.8	-5.8	-73.1	0.0131
C[C@H]1CN([C@@H](C)CO)C(=O)c2cc(NC(=O)Nc3ccccc3)ccc2O[C@H]1CN(C)Cc1ccc(Cl)c(Cl)c1	-2.3	28.3	21.1	0.584
C[C@H](CO)N1C[C@H](C)[C@@H](CN(C)Cc2ccc(Oc3ccccc3)cc2)Oc2c(NC(=O)Nc3cccc4ccccc34)cccc2C1=O	-2.5	22.5	53.2	-0.713
CC(=O)c1ccc(-n2c(CCC(=O)O)ccc2-c2cccs2)cc1	-1.2	-56.9	.	.
Cc1noc(C)c1NC(=O)Nc1ccc2c(c1)C(=O)N([C@H](C)CO)C[C@H](C)[C@@H](CN(C)C)O2	-0.1	0.9	33.7	0.0163
C[C@@H]1CN([C@@H](C)CO)C(=O)c2cccc(NC(=O)C3CCCCC3)c2O[C@H]1CN(C)C(=O)Nc1ccc(F)cc1	.	5.1	13.6	0.132

Part of the list above in order of length of the SMILES, low to high.
Compound	PD-1 reverse act	MITF inh	Hedgehog inh	YB-1 expr inh
CCn1c(SCC(=O)O)nnc1-c1ccc(OC)cc1	-0.4	-2.9	.	.
Cc1nc(C(N)=NC(=O)c2ccc(Cl)cc2)cs1	1.1	-78.7	.	0.175
COc1ccc(S(=O)(=O)N(C)C[C@@H]2Oc3ccc(NS(=O)(=O)c4ccccc4)cc3C(=O)N([C@@H](C)CO)C[C@@H]2C)cc1	-1.8	6.0	.	0.0163
